Calb biofilm kill – clotrimazole potentiators killing C. albicans biofilm, primary screen, 4-compound mixtures | C. albicans biofilm persisters + clotrimazole, fluorescence viability; primary screen in compound mixtures of four per well | inhibition, % at 7.6 µM | hit rate 0.02% among 120,000 | AID 1242, 2008;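 active = inhibition above 30.3% in the primary screen of four-compound pools, then above 30% when the compound was retested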;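 note: compounds exposed to preformed 24 h biofilms for 48 h; the number belongs to the whole pool; some results filed as inactive read as strong as hits; inactives centre near 12; 0% = biofilm with clotrimazole alone and 100% = kill control; retested singly at about 60 µM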
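Test system: C. albicans biofilms. Buffer or medium: RPMI/MOPS medium, pH 7.0. Timing: 48 h compound exposure at 37 °C. Technique: Alamar Blue fluorescence. Evaluation: percent inhibition of biofilm viability.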
* marks the source's active call; other numbers are inactive results. A portion of the library (hit frequency here may not be typical).

SMILES	Calb biofilm kill
O=C(CN1CCN(c2ccccc2F)CC1)Nc1cccnc1Cl	15.9
Fc1ccc(CCNCc2ccc(Br)cc2)cc1	15.5
O=C(Nc1ccccc1Cl)OC1CN2CCC1CC2 (stereo unspecified)	15.0
O=C1NC(=O)N(CCc2ccc(F)cc2)C(=O)/C1=C/C=C/c1ccccc1	22.5
CC(=O)NC(Cc1ccc(N(CCCl)CCCl)cc1)C(=O)NC(CC(C)C)C(=O)O (stereo unspecified)	7.8
Cc1ccsc1C(=O)C1CCCN(Cc2sc(N(C)C)nc2Cl)C1 (stereo unspecified)	28.7
O=C(C[N+]12CCC(CC1)C(CO)C2)c1ccc([N+](=O)[O-])cc1 (stereo unspecified)	16.4
O=C1NC(=O)N(c2ccccc2)C(=O)/C1=C\C=C\c1ccccc1	10.7
CC(C)CN1CCN(Cc2cccc3c2OCO3)CC1CCO (stereo unspecified)	21.7
OCC#CC[N+]1(CC#Cc2ccccc2)CCCC1	21.8
CC/C(=N\Nc1ccccc1)c1c(O)[nH]c(=O)[nH]c1=O	16.1
C=CCNC(=S)/N=C/c1c(O)[nH]c(=O)[nH]c1=O	15.1
Cc1nn(CC(C)C)c(Cl)c1C(=O)O	6.3
O=[N+]([O-])c1cc([As](=O)(O)c2ccc(O)c([N+](=O)[O-])c2)ccc1O	17.4
CCOC(=O)c1ccc2c(c1)n(Cc1ccccc1)c(C)[n+]2CC	22.9
O=C(c1cc(C(=O)NCc2ccccc2)c(=O)n(Cc2ccccc2)c1)c1cc(Cl)ccc1O	-5.5
CCC1(CCCC(=O)c2ccc(F)cc2)C(=O)NC(=S)NC1=O	10.2
CCC(C)n1c(O)c(/C=N/Nc2nc3c(c(=O)n(C)c(=O)n3C)n2C)c(=O)[nH]c1=S (stereo unspecified)	14.3
Cc1ccc(C(=O)N[C@@H](C)CN2C3=NC[C@H](Cc4ccccc4)N3C[C@H]2Cc2ccc(O)cc2)cc1Br	19.1
CCNc1cc(N2CCN(C)CC2)ccc1[N+](=O)[O-]	2.0
CN(CCc1nnc(N)s1)[N+](=O)[O-]	10.1
Cc1c2ccncc2c(C)c2c1[nH]c1ccccc12	17.6
O=C(NC1CCCCC1)Oc1cc2oc(=O)sc2cc1Cl	13.3
Cc1c(/C=N/O)c2ccccc2n1C	10.0
CN1CCN(c2ccc(S(C)(=O)=O)cc2[N+](=O)[O-])CC1	13.8

In the list so far, these have a nitro group on carbon.
SMILES	Calb biofilm kill
O=C(C[N+]12CCC(CC1)C(CO)C2)c1ccc([N+](=O)[O-])cc1 (stereo unspecified)	16.4
O=[N+]([O-])c1cc([As](=O)(O)c2ccc(O)c([N+](=O)[O-])c2)ccc1O	17.4
CCNc1cc(N2CCN(C)CC2)ccc1[N+](=O)[O-]	2.0
CN1CCN(c2ccc(S(C)(=O)=O)cc2[N+](=O)[O-])CC1	13.8

(list continues)
SMILES	Calb biofilm kill
CC12CCC3C(CC=C4CC(O)CCC43C)C1C/C(=C\c1ccccc1F)C2=O (stereo unspecified)	3.8
COc1cccc([C@@]2(O)CCCC[C@@H]2CN(C)C)c1	17.3
O=Cc1cn(CCCOc2ccccc2)c2ccccc12	7.8
COc1ccccc1OCC#CCN1CCCC(C)C1 (stereo unspecified)	9.0
O=C(NC(c1ccc(Cl)cc1)P(=O)(Oc1ccccc1)Oc1ccccc1)OCc1ccccc1 (stereo unspecified)	10.5
CN(C)c1cccc2c(C#N)ccc(N(C)C)c12	9.1
O=C(c1ccc(Cl)cc1)C1CCCN(C2CCSCC2)C1 (stereo unspecified)	23.4
Cc1cccc(N2C(=O)NC(=O)/C(=C/c3ccc([N+](=O)[O-])o3)C2=O)c1	10.1
CN(C)c1ccc([P+](=O)c2ccc(N(C)C)cc2)cc1	3.7
CC(=O)c1ccc(OC(C)C)c(Cc2c(O)[nH]c(=S)[nH]c2=O)c1	19.2
CCN(CC)c1nc2c(C)cccn2c(=O)c1C=C1C(=O)NC(=O)NC1=O	2.9
CSc1ncc(/C=C2/C(=O)NC(=O)N(c3ccc(C)cc3)C2=O)cn1	6.4
CCOP(=O)(Cc1cc(C(=O)CC)c(C)o1)OCC	16.0
CN1C[C@H](CNC(=O)OCc2ccccc2)C[C@@H]2c3cccc4c3c(cn4C)C[C@H]21	19.3
COc1ccc(OC)c(-n2c(O)c(/C=C3\C(C)=Nc4ccccc43)c(=O)[nH]c2=O)c1	23.0
N#CCCn1cc(C(=O)Nc2ccccc2Cl)c(-c2ccc([N+](=O)[O-])cc2)n1	6.1
CCN1CCN(c2ccc([N+](=O)[O-])cc2C=C2C(=O)NC(=O)NC2=O)CC1	16.3
O=C(c1n[nH]c(=O)c2ccccc12)N1CCC2(CC1)OCCO2	5.6
CCOP(=O)(Cc1cc(C(C)=O)c(C)o1)OCC	12.6
[N-]=[N+]=CC(=O)OC[C@H](N)C(=O)O	12.2
CCC(=O)N1N=C2C3CCN(CC3)C2C1c1ccc(C)cc1 (stereo unspecified)	15.0
COC(=O)OCC12CCC(O1)C1(C)C(=O)OCC21 (stereo unspecified)	9.7
COc1cccc(CNCCc2c[nH]c3ccccc23)c1OC	9.4
CNC(=S)N(C)CCc1cc2c(c(OC)c1C=C1C(=O)NC(=O)NC1=O)OCO2	19.1
C[N+]12CCC(CC1)C(C(O)(c1cccc(Cl)c1)c1cccc(Cl)c1)C2 (stereo unspecified)	12.5
NCCc1nc2ccccc2s1	11.7

In the list so far, 16 contain a halogen:
SMILES	Calb biofilm kill
O=C(CN1CCN(c2ccccc2F)CC1)Nc1cccnc1Cl	15.9
Fc1ccc(CCNCc2ccc(Br)cc2)cc1	15.5
O=C(Nc1ccccc1Cl)OC1CN2CCC1CC2 (stereo unspecified)	15.0
O=C1NC(=O)N(CCc2ccc(F)cc2)C(=O)/C1=C/C=C/c1ccccc1	22.5
CC(=O)NC(Cc1ccc(N(CCCl)CCCl)cc1)C(=O)NC(CC(C)C)C(=O)O (stereo unspecified)	7.8
Cc1ccsc1C(=O)C1CCCN(Cc2sc(N(C)C)nc2Cl)C1 (stereo unspecified)	28.7
Cc1nn(CC(C)C)c(Cl)c1C(=O)O	6.3
O=C(c1cc(C(=O)NCc2ccccc2)c(=O)n(Cc2ccccc2)c1)c1cc(Cl)ccc1O	-5.5
CCC1(CCCC(=O)c2ccc(F)cc2)C(=O)NC(=S)NC1=O	10.2
Cc1ccc(C(=O)N[C@@H](C)CN2C3=NC[C@H](Cc4ccccc4)N3C[C@H]2Cc2ccc(O)cc2)cc1Br	19.1
O=C(NC1CCCCC1)Oc1cc2oc(=O)sc2cc1Cl	13.3
CC12CCC3C(CC=C4CC(O)CCC43C)C1C/C(=C\c1ccccc1F)C2=O (stereo unspecified)	3.8
O=C(NC(c1ccc(Cl)cc1)P(=O)(Oc1ccccc1)Oc1ccccc1)OCc1ccccc1 (stereo unspecified)	10.5
O=C(c1ccc(Cl)cc1)C1CCCN(C2CCSCC2)C1 (stereo unspecified)	23.4
N#CCCn1cc(C(=O)Nc2ccccc2Cl)c(-c2ccc([N+](=O)[O-])cc2)n1	6.1
C[N+]12CCC(CC1)C(C(O)(c1cccc(Cl)c1)c1cccc(Cl)c1)C2 (stereo unspecified)	12.5
